# High-throughput results deposited in PubChem by National Center for Advancing Translational Sciences (NCATS).
# AID923: qHTS Assay for Allosteric/Competitive Inhibitors of Caspase-1: Spectroscopic Profiling in AFC Spectral Region; Potency, µM (titrated, usually from 57.5 µM), without a hit: at the top dose fluorescence increase, hits mostly activators; compound fluorescence, AFC spectral region (405/520 nm); almost no hit is shown here; AID 923, 2007; 1.1% of 75,000 active; active = well fitted activation curve with a large enough effect; inconclusive = small, poorly fitted or top-dose-only effect;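 note: potency is the fitted concentration of half-maximal effect; 0% is about no effect; scaled to a free AFC standard on each plate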
#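 Baseline compound fluorescence (AFC region, 405 nm ex/520 nm em) taken from the intercept of kinetic reads with 50 nM caspase-1 and 5 uM Ac-WEHD-AFC; normalized to an on-plate AFC standard curve; compounds titrated up to 57 uM.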
# TSHR ag: agonists of human thyroid stimulating hormone receptor; P16473; HEK293-CNG-TSHR cells (CNG channel as cAMP sensor), membrane potential dye, cAMP; Potency, µM (doses to about 57.1 µM), for the others: at the top dose activation, actives largely listed as activators; 0.48% of 73,000 active; AID 926; active = well fitted activation curve of enough size with the parental cells flat; inconclusive = any curve in the parental cells; inactive = parental cells flat and receptor cells flat or falling; note: potency is the fitted concentration of half-maximal effect; % of control where 0% means no effect; weak receptor curves with flat parental cells got no call and are not listed
# Target sequence (P16473 whole entry, looked up): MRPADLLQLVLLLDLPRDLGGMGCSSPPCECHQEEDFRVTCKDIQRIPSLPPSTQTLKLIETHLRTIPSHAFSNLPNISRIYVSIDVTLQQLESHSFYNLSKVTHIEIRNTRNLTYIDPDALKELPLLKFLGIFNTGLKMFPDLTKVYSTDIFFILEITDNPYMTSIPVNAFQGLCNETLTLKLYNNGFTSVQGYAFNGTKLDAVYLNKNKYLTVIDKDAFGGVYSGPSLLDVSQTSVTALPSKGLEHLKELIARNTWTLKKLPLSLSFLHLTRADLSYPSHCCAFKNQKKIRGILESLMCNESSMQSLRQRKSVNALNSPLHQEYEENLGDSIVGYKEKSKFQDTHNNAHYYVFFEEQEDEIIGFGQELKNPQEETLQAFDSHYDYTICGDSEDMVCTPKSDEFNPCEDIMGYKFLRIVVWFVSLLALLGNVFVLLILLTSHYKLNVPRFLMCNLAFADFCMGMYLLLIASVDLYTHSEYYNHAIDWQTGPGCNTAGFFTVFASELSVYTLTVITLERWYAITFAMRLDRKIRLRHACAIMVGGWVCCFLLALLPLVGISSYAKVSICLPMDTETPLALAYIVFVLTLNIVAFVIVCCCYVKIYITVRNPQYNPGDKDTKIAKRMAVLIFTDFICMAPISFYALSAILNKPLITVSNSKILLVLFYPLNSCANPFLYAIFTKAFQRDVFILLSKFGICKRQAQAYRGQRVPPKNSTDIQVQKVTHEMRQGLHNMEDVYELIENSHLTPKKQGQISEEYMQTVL
#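 HEK 293 cells stably expressing TSHR and a cAMP-gated CNG channel; parental CNG-only cells as counterscreen. Cells preloaded 60 min with membrane potential dye plus 100 uM RO 20-1724, then compound 30 min; fluorescence read at 590 nm.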
# A647 autofl: A647 region autofluorescence; max dye-equivalent concentration, M; AID 592; Compound fluorescence, A647 channel (570/671 nm), Tris buffer; 59,000 tested, under 10 active; active means above 1 µM dye equivalent; inconclusive means 0.1 to 1 µM; inactive means 0.1 µM or less;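 note: values scaled relative to a standard on each plate; highest value over a series up to 38 µM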
#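 Spectral profiling of library compounds in pH 8.0 Tris: 15 min room-temperature incubation, single ex/em pair (570/671 nm), response normalized to Alexa 647 equivalents.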
# A488 fluor: A488 region autofluorescence; max dye equivalency, M; compound autofluorescence, A488 spectral region, dye equivalency; hits give high values; 0.1% of 59,000 active; active = above 10 nM dye equivalent; inconclusive = 1 to 10 nM; inactive = 1 nM or less; about half of its hits are not listed in these tables;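 note: highest value over a series up to 38 µM; compound alone in buffer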
#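 Compounds pin-transferred into 100 mM Tris buffer, pH 8.0, incubated 15 min at room temperature, then imaged with 480 nm excitation/540 nm emission filters. Fluorescence converted to Alexa 488 dye-equivalent concentration via an on-plate six-point A488 standard curve.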
# Resorufin autofl: compound fluoresces in the resorufin spectral region; AID 588; 0.04% of 59,000 active; max dye-equivalent concentration, M; Compound fluorescence, resorufin region 547/598 nm, buffer; hits give high values; active = above 10 nM dye equivalent; inconclusive = 1 to 10 nM; inactive = 1 nM or less; a few of its hits are not listed in these tables; note: highest value over a series up to 38 µM
#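 Dye-equivalent concentration values derive from comparing each well's 547/598 nm fluorescence against resorufin standards included on every plate. Incubation was 15 min at room temperature in 100 mM Tris, pH 8.0.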
# The depositor's hits bear a star; i = inactive; ? = inconclusive; . = no result given; & = joins results of further samples; [ ] = another dose, or the depositor's remark.
Molecule	AID923	TSHR ag	A647 autofl	A488 fluor	Resorufin autofl
CCCC(=O)Nc1nnc(-c2cccc(OCC)c2)s1	-0.9%	-6%	2.9e-08	i	i
O=C(CCc1ccccc1)Nc1ncc2c(n1)CCCC2=O	0.8%	-1%	1e-09	i	i
CN(C)S(=O)(=O)c1ccccc1C#N	-0.2%	-1%	1.4e-08	i	i
O=C(NCCc1ccccc1)c1cc(-c2ccc3c(c2)OCO3)on1	-2.9%	5%	1e-09	i	i
CCn1c(SCC(=O)NCCOC)nc2sc(C)c(C)c2c1=O	0.1%	-6%	1e-09	i	i
O=C(c1ccncc1)N1CCC2(CC1)CCN(c1ccncc1)CC2	1.1%	-2%	8.8e-09	i	i
O=C(c1ccco1)N1CCN=C1SCc1cccc(F)c1	-0.3%	?	.	.	.
COC(=O)c1cc(-c2cccc(OC)c2)n[nH]1	0.1%	2%	1e-09	i	i
CC(C)NC(=O)N1CC[C@@]2(CCCN(C(=O)c3ccco3)C2)C1	2.2%	4%	3.5e-09	i	i
Cc1cccc2cc3c(NC(=O)c4ccccn4)nn(C)c3nc12	0.6%	26%	1e-09	i	i
CCC/C=C(\CCC)C(NS(=O)(=O)c1cccs1)c1ccc(C(=O)OC)cc1 (stereo not drawn)	-1.3%	?	.	.	.
NC(=O)COc1ccc(NC(=O)OCc2ccccc2)cc1	0.4%	2%	3.5e-08	i	i
Cn1c(CSc2ncccn2)nnc1SCC(=O)N1CCCc2ccccc21	1.3%	?	1.6e-09	i	i
CCn1c(=O)c2cc(C(=O)N3CCN(C(=O)c4ccco4)CC3)sc2c2ccccc21	-0.2%	0%	.	.	.
Cc1[nH]nc2c1C1(CCN(C(=O)OCc3ccccc3)CC1)C(C#N)=C(N)O2	-0.4%	-22%	1e-09	i	i
CCN(CC)c1ccc(C(=O)OCC(=O)c2ccco2)cc1	-0.1%	15%	5.8e-09	i	i
Cc1noc(C)c1S(=O)(=O)N1CCC(C(=O)N2CCN(c3ccccc3Cl)CC2)CC1	-1.9%	16%	1e-09	i	i
CC1(C)CC(NC(=O)CCC2CCCC2)CC(C)(C)N1	0.2%	-4%	1e-09	i	i
Nc1nnc(CCS(=O)(=O)c2cc(Cl)ccc2Cl)s1	1.9%	6%	.	.	.
CCCCOc1cccc(OCCCC)c1C(=O)Nc1cc(C)on1	-1.4%	?	3e-08	i	i
C=CCOC(=O)C(C#N)c1nc2ccccc2nc1N1CCN(Cc2ccccc2)CC1 (stereo not drawn)	14%	?	1e-09	i	i
CCOC(=O)c1sc2c(c1C)c(=O)c(C(=O)OCC)cn2CC	.	.	1.5e-09	i	i
Cc1ccccc1N1C(=O)C2ON(c3ccccc3)C(c3ccncc3)C2C1=O (stereo not drawn)	.	.	8.2e-09	i	i
COc1cc2c(cc1OC)C(C)N(C(=O)c1cc3n(n1)C(C(F)(F)F)CC(c1ccco1)N3)CC2 (stereo not drawn)	3.3%	3%	5.6e-08	i	i
CC1=C(C(=O)N2CCCCCC2)C2(CCC(C)CC2)OC1=O (stereo not drawn)	1.1%	14%	1e-09	i	i
CCCCOC(=O)n1c(SCC(=O)N(C)C)nc2ccccc21	0.1%	?	3e-09	i	i
CC1CCc2nc3ccc(S(=O)(=O)N4CCC(C(=O)NC5CCCC5)CC4)cc3c(C(=O)O)c2C1 (stereo not drawn)	3.1%	-20%	.	.	.
O=C(CCN1C(=O)C2C3C=CC(C3)C2C1=O)NCc1cccnc1 (stereo not drawn)	1.2%	3%	6.4e-09	i	i
O=C(c1ccncc1)N1CCC[C@@]2(CCN(c3ncccn3)C2)C1	3.6%	11%	1e-09	i	i
CCC(O)OC(O)CC (stereo not drawn)	2.3%&-3.8%	?	.	.	.

# Next section, starting with the last three of the part before.
Molecule	AID923	TSHR ag	A647 autofl	A488 fluor	Resorufin autofl
O=C(CCN1C(=O)C2C3C=CC(C3)C2C1=O)NCc1cccnc1 (stereo not drawn)	1.2%	3%	6.4e-09	i	i
O=C(c1ccncc1)N1CCC[C@@]2(CCN(c3ncccn3)C2)C1	3.6%	11%	1e-09	i	i
CCC(O)OC(O)CC (stereo not drawn)	2.3%&-3.8%	?	.	.	.
O=C1COc2ccc(C(=O)NCc3ccco3)cc2N1	-1.0%	-7%	1e-09	i	i
O=S(=O)(c1ccc(F)cc1)N1CCC(O)(c2ccc3c(c2)OCO3)CC1	0.1%	0%	1e-09	i	i
Cc1cc(=O)oc2c(C)c(OCC(=O)N(C)C)ccc12	-0.7%	-16%	1e-09	i	i
Cc1cc(C(=O)COC(=O)CN(C)S(=O)(=O)c2ccc(Cl)cc2)c(C)n1CC1CCCO1 (stereo not drawn)	0.5%	8%	3.1e-08	i	i
Cc1ccc2nc(-c3ccc(S(=O)(=O)N4CCOCC4)cc3)cn2c1	-2.5%	12%	3.7e-08	i	i
Cc1ccc(C(=O)NCCCN2CCOCC2)cc1N1CCCC1=O	-0.2%	8%[11.4 µM]	2.3e-08	i	i
OC(CN1CCN(c2ccccc2)CC1)c1ccc2c(c1)CCN2 (stereo not drawn)	-2.7%	4%	.	.	.
COc1ccc(S(C)(=O)=O)cc1S(C)(=O)=O	-1.0%	1%	1e-09	i	i
O=C(Nc1cnc2ccccc2c1)c1ccco1	1.0%	5%	2.1e-09	i	i
CC(C)OCCCNC(=O)c1sc(=S)n(C)c1N	0.6%	-1%	6.2e-09	i	i
Cc1ccc(-c2nnc(N3CCN(S(C)(=O)=O)CC3)c3ccccc23)cc1	1.4%	-6%	1e-09	i	i
CC(=O)N1CCC(N(C(=O)Nc2ccc(C)c(C)c2)C2CCCC2)CC1	-0.7%	2%	3.4e-08	i	i
NC(=O)N[C@H](CC(=O)O)C(=O)O	0.3%[11.5 µM]	0%[11.4 µM]	7.4e-09	i	i
COc1cc(-c2nc(N)n[nH]2)cc(OC)c1OC	0.2%	?	4.9e-09	i	i
CCN(CC)C(=O)N1CCC(NC(=O)c2ccccc2)CC1	-2.8%	5%	3.3e-08	i	i
Cc1cc(C)cc(N(CC(=O)NCc2ccco2)S(=O)(=O)c2c(C)noc2C)c1	3.1%	?	.	.	.
COc1ccc(N2CCN(S(=O)(=O)/C=C/c3ccccc3)CC2)cc1	0.7%	10%	3e-08	i	i
COc1ccc2[nH]c3c(NCCN(C(C)C)C(C)C)ncnc3c2c1	3.7%	-3%	3.4e-08	i	i
Cc1oc(-c2ccccc2)nc1Cn1cccc1C1=NC(c2ccccc2)CO1 (stereo not drawn)	0.7%	?	5.6e-09	i	i
CC(=O)c1cccc(N(CC(=O)NCC2CCCO2)C(=O)CCC(=O)Nc2cc(C)on2)c1 (stereo not drawn)	-1.4%	0%	5.7e-08	i	i
CCn1c(SCC(=O)c2cc(OC)ccc2OC)nnc1-c1ccncc1	2.8%	?	1e-09	i	i
CSc1nc(NCCOCCO)c2sc3nc(-c4ccco4)c4c(c3c2n1)CCC4	-1.1%	14%	2.4e-09	i	i
COc1ccc(CC(=O)NC(C)c2nnc(SCC(=O)Nc3nc(C)cs3)n2C)cc1 (stereo not drawn)	-0.4%	9%	7.8e-08	i	i
O=C(CCNS(=O)(=O)c1cccc2nonc12)NC1CCCc2ccccc21 (stereo not drawn)	0.2%	-7%	1e-09	i	i
O=C(CCCCn1c(=O)[nH]c2ccsc2c1=O)NCc1cccnc1	0.5%	9%	2.1e-08	i	i
CCOC(=O)c1oc2ccccc2c1NC(=O)c1ccc(S(=O)(=O)N2CCCC2)cc1	-1.7%	.	9e-09	i	i
O=C(c1ccc(COc2c(F)c(F)cc(F)c2F)o1)N1CCN(c2ccc(Cl)cc2)CC1	-1.4%	25%	1e-09	i	i
CCC(Sc1ccc2nnc(-c3ccc(F)cc3)n2n1)C(=O)O (stereo not drawn)	-0.2%	-1%[11.4 µM]	2.8e-09	i	i
CCS(=O)(=O)c1nnnn1-c1ccccc1S(C)(=O)=O	1.7%	-5%	3.9e-08	i	i
CCn1c(=S)sc2c(=O)n(-c3ccccc3)c(SCC(=O)NCc3ccco3)nc21	2.0%	?	8.1e-09	i	i
O=C(Cn1c(=O)sc2ccccc21)NCc1ccccn1	2.7%	6%	.	.	.
O=C(NCc1ccco1)c1sc(=S)n2c1[nH]c(=O)c1ccccc12	1.7%	?	2.1e-09	i	i
CCOc1ccc(-c2nnc3ccc(SC)nn23)cc1	0.2%	12%[11.4 µM]	1e-09	i	i
CC(C)N(Cc1nc(-c2ccc(Cl)cc2)no1)C(=O)CCC1CCCC1	-3.3%	?	.	.	.
COC(=O)c1ccc(-c2nc(-c3cccs3)no2)cc1	-1.5%	6%	.	.	.
CCc1nc2oc3cc(OC)ccc3c(=O)c2c(=O)n1-c1ccccc1	-1.8%	8%	2.4e-09	i	i
COC(=O)c1ccc(CSc2nc(-c3ccc(OC)cc3)nc3c2c(=O)n(C)c(=O)n3C)o1	-1.7%	5%	9.5e-09	i	i
CCN(CC)C(=O)CSc1nnc(CCCCCNC(=O)OC(C)(C)C)o1	4.5%	10%	1e-09	i	i
CC1(C)CC(=O)C2=C(C1)OC(c1ccncc1)C(C#N)=C2N (stereo not drawn)	1.6%	8%	4e-08	i	i
COc1ccc(NC(=O)c2ccc(-c3ccc(-c4noc(C)n4)cc3C)cc2)cc1N1CCN(C)CC1	-3.8%&-4.1%	?	6.4e-08	i	i
CC1CCCN(c2ccc(C(=O)NCc3cccs3)cn2)C1 (stereo not drawn)	-0.3%	-3%	2e-09	i	i
Cc1cc(N)n2ncc(-c3cccc(Br)c3)c2n1	-3.1%	-21%[11.4 µM]	.	.	.
CC1CCc2sc3ncn4nc(C(=O)NCc5ccco5)nc4c3c2C1 (stereo not drawn)	-2.7%	?	1e-09	i	i
CN1CCN(S(=O)(=O)c2ccc(NC(=O)c3cccc(S(=O)(=O)N4CCCC4)c3)cc2)CC1	1.1%	0%[11.4 µM]	.	.	.
CC(C)c1cc(C(F)(F)F)nc(NNc2nc(C(C)C)cc(C(F)(F)F)n2)n1	-2.0%[11.5 µM]	?	2.3e-09	i	i
CC(=O)Nc1ccc2c(c1)CCC2=O	-1.2%	-2%[11.4 µM]	1e-09	i	i
O=C(CCN1C(=O)C2C3C=CC(C3)C2C1=O)NC1CCCc2ccccc21 (stereo not drawn)	2.2%	1%	1e-09	i	i
C/C(CCC(=O)OC[C@@H]1O[C@H](C#Cc2ccccc2)C=C[C@@H]1Oc1ccc(C)cc1)=N/OC[C@@H](O)[C@H]1O[C@H]2OC(C)(C)O[C@H]2[C@@H]1O	-1.2%[11.5 µM]	-2%[11.4 µM]	.	.	.
CCc1nccn1S(=O)(=O)c1ccc(Br)cc1Br	-0.3%	4%	1e-09	i	i
CCCn1c(-c2ccc(F)cc2)nc2c(NCCN3CCOCC3)nc(C)nc21	0.1%	-1%	.	.	.
Cc1ccc2[nH]c(C(=O)O)c(NC(=O)CN3CCN(c4cccc(C)c4C)CC3)c2c1	0.9%	?	6.8e-09	i	i
CCC(=O)Nc1sc2c(c1C#N)CC(C)(C)NC2(C)C	1.2%	8%	.	.	.

# In the list so far, these contain a CF3 group:
Molecule	AID923	TSHR ag	A647 autofl	A488 fluor	Resorufin autofl
COc1cc2c(cc1OC)C(C)N(C(=O)c1cc3n(n1)C(C(F)(F)F)CC(c1ccco1)N3)CC2 (stereo not drawn)	3.3%	3%	5.6e-08	i	i
CC(C)c1cc(C(F)(F)F)nc(NNc2nc(C(C)C)cc(C(F)(F)F)n2)n1	-2.0%[11.5 µM]	?	2.3e-09	i	i

# An excerpt (hit frequency here may not be typical).
